# KCNQ2 enhance – KCNQ2 (rat) channel potentiation. B-score at 10 µM. CHO-K1 KCNQ2, FluxOR thallium flux fluorescence; hits give high values. O88943. 310,000 tested, 0.54% active;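 active = fluorescence ratio B-score at least 3 SD of library B-scores, with initial fluorescence B-score within 3 SD, cut at about 5.3 in these data; same plate scores as AID 2156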;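 also: B-score of peak minus minimum over baseline fluorescence ratio after K+ and Tl+ stimulus; positive B-score means potentiation of KCNQ2 with more thallium influx and brighter signal; only the inactives scoring about 0 or higher are listed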
# Target sequence (O88943 whole entry, looked up): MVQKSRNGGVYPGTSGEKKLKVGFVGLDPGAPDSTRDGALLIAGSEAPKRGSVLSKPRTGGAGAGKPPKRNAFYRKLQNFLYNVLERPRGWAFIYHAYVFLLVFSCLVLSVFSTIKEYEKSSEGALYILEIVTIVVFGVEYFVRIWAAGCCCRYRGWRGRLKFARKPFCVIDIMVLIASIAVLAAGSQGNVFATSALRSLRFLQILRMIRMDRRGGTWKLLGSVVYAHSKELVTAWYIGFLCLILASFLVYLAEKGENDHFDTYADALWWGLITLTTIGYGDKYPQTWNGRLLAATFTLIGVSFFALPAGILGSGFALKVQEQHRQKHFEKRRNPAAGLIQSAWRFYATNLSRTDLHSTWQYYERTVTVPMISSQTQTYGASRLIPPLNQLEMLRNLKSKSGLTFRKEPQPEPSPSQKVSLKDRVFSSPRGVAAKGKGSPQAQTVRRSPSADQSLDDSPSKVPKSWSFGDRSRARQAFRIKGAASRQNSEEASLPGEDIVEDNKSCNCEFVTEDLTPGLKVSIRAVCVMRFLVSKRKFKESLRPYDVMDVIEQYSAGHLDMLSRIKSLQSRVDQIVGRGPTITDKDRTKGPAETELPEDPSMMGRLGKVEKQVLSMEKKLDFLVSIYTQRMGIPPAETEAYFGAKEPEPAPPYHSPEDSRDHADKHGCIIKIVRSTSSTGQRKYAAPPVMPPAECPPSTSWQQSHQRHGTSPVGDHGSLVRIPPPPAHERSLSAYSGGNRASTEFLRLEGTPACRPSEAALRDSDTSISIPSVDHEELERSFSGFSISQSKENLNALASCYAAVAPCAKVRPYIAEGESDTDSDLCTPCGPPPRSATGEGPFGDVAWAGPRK
# KCNQ2 enhance baseline – further read-out of KCNQ2 enhance, marked with its call; B-score; compound at 10 µM; measured here: initial fluorescence intensity artifact check;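 brightness before thallium and not channel activity; 0 = typical well and far values either way flag optical interference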
# Numbers without * were called inactive. These rows are one share of the data; rates above refer to the full screens.
KCNQ2 enhance	KCNQ2 enhance baseline	SMILES
0.47	-0.33	Cc1ccc(N(C)C(=O)CCS(=O)(=O)c2cc3c(cc2Cl)NC(=O)CO3)cc1
1.4	-2.54	NC(=O)C1CCCN(Cc2ccc3ccccc3c2)C1 (centres undefined)
1.12	0.31	Cc1cccc(C(=O)N[C@H](C(=O)Nc2ncc(C)s2)C(C)C)c1
1.14	0.91	CCOC(=O)C1(Cc2cccc(F)c2)CCN(Cc2cnn(CC)c2)CC1
0.06	-0.03	Cc1cccc(OCCCn2ccnc2)c1
0.65	0.3	Cc1c(C(=O)N(C)c2ccccc2)oc2c1C(O)CC(C)(C)C2 (centres undefined)
1.38	1.24	COC(=O)Cc1ccc(NC(=S)N2CCC(Cc3ccccc3)CC2)cc1
0.19	0.81	Cc1ccc(-c2ccc(/C=N/NC(N)=S)o2)cc1
0.13	-1.12	CCCC(=O)Nc1ccccc1NC(=O)c1ccc(OC(C)=O)cc1
0.43	-0.97	CCC(=O)N(CC(=O)Nc1sc(C)c(C)c1C(N)=O)Cc1ccc(F)cc1
0.64	-1.51	CC1CCc2c(sc(NC(=O)c3ccc(Cn4cc(Br)cn4)o3)c2C(N)=O)C1 (centres undefined)
0.89	0.29	CN(Cc1ccc(Cl)c(Cl)c1)C(=O)CN1C(=O)NC2(CCCC2)C1=O
1.43	0.2	CCOc1ccccc1C(c1c(O)nc(SC)[nH]c1=O)c1c(O)nc(SC)[nH]c1=O
2.96	0.21	COc1cccc(CNC(=O)c2ccc(OCC(=O)N3CCOCC3)c(OC)c2)c1
0.01	0.07	COC(=O)CC1C(=O)NCCN1Cc1cn(-c2ccc(C)cc2)nc1-c1cccc(C)c1 (centres undefined)
1.04	0.76	COC(=O)C1(O)CC(C(C)C)=NN1C(=O)c1ccc(Cl)cc1 (centres undefined)
1.5	0.76	CCc1nc(SCC(=O)NC2CC2)c2c(C)c(C)sc2n1
2.13	0.21	O=C(c1cccc(F)c1)N1CCN(Cc2ccco2)CC1
0.87	-0.82	CCOC(=O)Cc1csc(NC(=O)C(C)(C)CC)n1
0.22	1.3	COC(=O)C1=C(C)NC(C)=C(C(=O)OC)C1C(=O)OCc1nc2cc(C(=O)OC)ccc2c(=O)[nH]1
0.81	0.5	C=C(C)CN1C(=O)C2(OCCO2)c2cc(Br)ccc21
1.83	-0.01	O=C(NC1CC2CCCC(C1)N2C(=O)Nc1ccccc1)C1CC1 (centres undefined)
1.33	-0.61	COc1cc(NC(=O)Nc2cccc(Cl)c2)c(OC)cc1NC(=O)CN1CCCCC1
0.67	-4	COc1cc2c(cc1OC)CN(C(=O)c1cc(S(=O)(=O)N3CCOCC3)ccc1C)CC2
1.06	-0.08	Nn1c(COc2ccc(Cl)cc2)nc2ccccc2c1=O
0.11	1.33	COc1ccc(NC(=S)N2CCC(NC(=O)c3cccc(F)c3)CC2)cc1
0.79	-0.08	Cc1csc(NC(=O)C2CSC3(C)CCC(=O)N23)n1 (centres undefined)
0.01	-1.58	Cc1ccc(C(=O)Nc2c(C)cc(-c3ccc(Cl)cc3)oc2=O)cc1
0.85	0.86	COc1ccc(-c2nc(CS(=O)CC(=O)NCc3ccccc3)c(C)o2)cc1OC (centres undefined)
0.88	0.91	Cc1cccc(C)c1OCC(O)Cn1ccnc1C (centres undefined)
0.16	-0.34	CC(=O)C1=C(O)C(=O)N(c2ccc(Br)cc2)C1c1cccc([N+](=O)[O-])c1 (centres undefined)
0.49	-0.22	Cc1cc(S(=O)(=O)Nc2ccc(C(=O)NCC(c3ccccc3)N(C)C)cc2)ccc1F (centres undefined)
0.76	-0.18	COc1cccc(CC(=O)Nc2ccc(-c3csc(C)n3)cc2)c1
0.01	0.12	Cc1ccc(N2CC(C(=O)Nc3nnc(SCC(N)=O)s3)CC2=O)cc1C (centres undefined)
0.74	-0.08	Cc1cccc(C)c1NC(=O)Nc1cccs1
1.32	-0.21	Cc1cc(-c2ccc([N+](=O)[O-])cc2)nc2ccccc12
0.01	-0.42	COC(=O)c1cccnc1Oc1ccccc1
1.18	-0.9	CCN(CC)CCNS(=O)(=O)c1ccc(/C=C/C(=O)O)cc1
0.01	0.9	O=C(CSc1nccc(=O)[nH]1)N1CCOCC1
1	-3.03	COC(=O)c1cc2c([nH]c3ccccc32)c(C)n1
0.16	-0.03	COCCNC(=O)CSc1ccc(Cl)cc1
2.31	-0.09	Cc1ccc(NC(=S)NC(NC(=O)Cc2cccc3ccccc23)C(Cl)(Cl)Cl)cc1 (centres undefined)
0.53	-1.65	COc1ccc(OC)c(CNC(=O)C2CCN(C(=O)N(C)C)CC2)c1
0.08	1.31	S=c1nc[nH]c2nc[nH]c12
0.62	1	CCOc1ccc(CN(C(=O)c2cc3ccccc3oc2=O)C2CC2)cc1
0.92	-0.55	CC(C)P(=O)(c1cccc(C(=O)O)c1)C(C)C
0.01	-0.12	CCc1cc[n+](-c2nc3ccccc3nc2C(=C=[N-])C#N)cc1
1.9	-0.01	Cc1cc(C)c(NC(=O)CS(=O)CC(=O)N2CCN(c3cccc(C)c3C)CC2)c(C)c1 (centres undefined)

# An excerpt from above in order of number of heavy atoms, falling.
KCNQ2 enhance	KCNQ2 enhance baseline	SMILES
1.9	-0.01	Cc1cc(C)c(NC(=O)CS(=O)CC(=O)N2CCN(c3cccc(C)c3C)CC2)c(C)c1 (centres undefined)
2.31	-0.09	Cc1ccc(NC(=S)NC(NC(=O)Cc2cccc3ccccc23)C(Cl)(Cl)Cl)cc1 (centres undefined)
0.01	0.12	Cc1ccc(N2CC(C(=O)Nc3nnc(SCC(N)=O)s3)CC2=O)cc1C (centres undefined)
0.16	-0.34	CC(=O)C1=C(O)C(=O)N(c2ccc(Br)cc2)C1c1cccc([N+](=O)[O-])c1 (centres undefined)
0.53	-1.65	COc1ccc(OC)c(CNC(=O)C2CCN(C(=O)N(C)C)CC2)c1
0.76	-0.18	COc1cccc(CC(=O)Nc2ccc(-c3csc(C)n3)cc2)c1
0.01	-0.12	CCc1cc[n+](-c2nc3ccccc3nc2C(=C=[N-])C#N)cc1
1.18	-0.9	CCN(CC)CCNS(=O)(=O)c1ccc(/C=C/C(=O)O)cc1
1.32	-0.21	Cc1cc(-c2ccc([N+](=O)[O-])cc2)nc2ccccc12
1	-3.03	COC(=O)c1cc2c([nH]c3ccccc32)c(C)n1
0.01	-0.42	COC(=O)c1cccnc1Oc1ccccc1
0.16	-0.03	COCCNC(=O)CSc1ccc(Cl)cc1
0.08	1.31	S=c1nc[nH]c2nc[nH]c12

# (further entries)
KCNQ2 enhance	KCNQ2 enhance baseline	SMILES
2.06	0.02	CCOC(=O)N1CCN(C(=O)CSc2ccc3nnc(-c4ccccn4)n3n2)CC1
0.01	1.32	OC(c1ccccc1)(c1ccccc1)c1ncc[nH]1
0.55	-0.35	O=S(=O)(Nc1cccc(-c2ccc(N3CCOCC3)nn2)c1)c1ccc(Cl)c(Cl)c1
0.02	-1.9	CC(NS(=O)(=O)c1ccc(Br)cc1)C(=O)NC1CCCCCC1 (centres undefined)
0.07	-0.91	CC(=O)Nc1c(NC(C)(C)C)c2ccccc2oc1=O
1.96	-1.43	CC(=O)N(CCc1ccccc1)Cc1cc2ccc(C)c(C)c2[nH]c1=O
1.4	-1.18	C[N+](C)(C)CCNC(=O)c1c(O)c2c([nH]c1=O)CCCC2
0.36	2	CCOC(=O)c1cn(CC(=O)Nc2cccc(F)c2)nn1
0.02	0.01	O=C(NCCc1ccccc1)c1ccc(CS(=O)(=O)Cc2ccc(F)cc2)o1
0.01	-1.36	C=CCN1C(=O)C(O)(CC(=O)c2ccc(-n3cccc3)cc2)c2ccccc21 (centres undefined)
0.17	-0.22	CCOc1cc(NC(=S)NCc2ccco2)c(OCC)cc1NC(C)=O
2.94	-0.12	Cc1cc(OCC(=O)Nc2ccncc2)cc(C)c1Cl
0.83	0.55	CCCOC(=O)CC1C(=O)NCCN1Cc1cc(OC)cc(OC)c1 (centres undefined)
0.85	0.18	COc1ccc(CNC(=O)c2nccnc2CO)cc1
1.9	-1.8	O=C(NC1CCCCC1)C1CCCN(S(=O)(=O)c2ccc(Br)s2)C1 (centres undefined)
1.53	1.48	O=C(Nc1cccc(Cl)c1)c1ccc(OC(=S)N2CCOCC2)cc1
0.09	1.44	CCCCCNS(=O)(=O)c1cc(C)ccc1OC
0.67	0.64	CCN(CC)S(=O)(=O)c1ccc(N2CCCC2)c(NC(=O)c2ccc(N3CCCC3=O)cc2)c1
2.17	-1.87	CC(C)C(NC(=O)OCc1ccccc1)C(=O)N1CCOCCOCCOCC1 (centres undefined)
0.31	-0.02	COc1ccc(NS(=O)(=O)c2ccc(NC(C)=O)cc2)c(OC)c1
1.23	0	CC(Oc1ccccc1F)C(=O)NNC(=O)CCNC(=O)c1ccco1 (centres undefined)
0.82	0.42	Cc1ccc(COc2ccccc2C(=S)N2CCCC2)cc1
0.56	0.31	CCOc1cc(/C=N/NC(=O)c2ccccn2)ccc1OC(=O)c1ccc(F)cc1
2	-0.77	CN(CCOC(=O)/C=C/c1ccco1)Cc1ccccc1
4.19	-1.13	CCc1nnc(NC(=O)c2cc(-c3ccncc3)nc3ccccc23)s1
0.17	-2.08	CC1CCCN(C(=O)c2ccc3c(c2NCCO)C(=O)c2ccccc2C3=O)C1 (centres undefined)
1.61	0.48	COc1cccc(/C=C2\SC(=S)N(NS(=O)(=O)c3ccc(C)cc3)C2=O)c1OC
1.7	0.56	O=C(O)C1CCN(C(=O)NC2CCCCC2)CC1
0.21	1.35	CC(C)(C)n1nnnc1C(c1cccnc1)N1CCOCC1 (centres undefined)
0.19	-0.07	OC(COc1ccccc1Br)CN1CCNCC1 (centres undefined)
0.56	-0.36	CC(C)(C)OC(=O)N1CCN(C(=O)OCC2c3ccccc3-c3ccccc32)CC1C(=O)O (centres undefined)
1.11	-2.36	COc1ccc(S(=O)(=O)NCC(=O)N(CC(=O)NCc2ccco2)Cc2ccc(F)cc2)cc1
0.01	0.01	CCOC(=O)CCc1nc2ccccc2[nH]c1=O
0.18	0.23	O=C(Nc1ccc(Cn2cccn2)cc1)c1ccc(COc2cccc(Br)c2)cc1
1.27	-0.09	C=CCOc1ccc(C(c2c(O)nc(SC)[nH]c2=O)c2c(O)nc(SC)[nH]c2=O)cc1
0.1	-0.12	O=C(Oc1ccc(Cl)c2cccnc12)N1CCOCC1
0.03	-2.47	CCC(C)Nc1nc(CN2CCOCC2)nc2sc3c(c12)CCC3 (centres undefined)
0.67	1.3	CCN(CC(=O)Nc1ccc(Cl)c(C(F)(F)F)c1)CC(=O)NC1CCS(=O)(=O)C1 (centres undefined)
2.22	-1.11	CC(C)(C)CC(=O)NC(=S)Nc1ccccc1[N+](=O)[O-]
0.39	-0.51	CC(On1nnc2ccccc21)C(=O)N1CCN(Cc2ccccc2)CC1 (centres undefined)
0.32	0.98	O=C(CSc1nnc(-c2ccncc2)o1)N1CCCC1
0.01	1.81	CCOC(=O)Cc1csc(NC(=O)COc2ccc(N(C)S(=O)(=O)c3cccs3)cc2)n1
2.31	-1.2	CCNc1c([N+](=O)[O-])ncn1C
0.76	0.28	O=C(NCC1CCCO1)c1c(O)c2c([nH]c1=O)CCCC2 (centres undefined)
0.11	-2.11	CCN1CCN(c2ccc(S(=O)(=O)N3CCOCC3)cc2NC(=O)C(C)Oc2ccc(Cl)cc2)CC1 (centres undefined)
0.86	4.03	CCCC(=O)c1cc2c(cc1NC(=O)c1ccccc1F)OCCO2
2.03	-0.39	COc1cccc2cc(C(=O)NC(C)C3CCCO3)c(=O)oc12 (centres undefined)
1.54	0.88	COc1ccc(Nc2ccc([N+](=O)[O-])cn2)cn1

# As a short view, part of the list above:
KCNQ2 enhance	KCNQ2 enhance baseline	SMILES
2.22	-1.11	CC(C)(C)CC(=O)NC(=S)Nc1ccccc1[N+](=O)[O-]
0.39	-0.51	CC(On1nnc2ccccc21)C(=O)N1CCN(Cc2ccccc2)CC1 (centres undefined)
0.32	0.98	O=C(CSc1nnc(-c2ccncc2)o1)N1CCCC1

# (next part)
KCNQ2 enhance	KCNQ2 enhance baseline	SMILES
0.52	0.79	CC1CCc2c(nc3ncnn3c2Nc2ccc(OC(F)(F)F)cc2)C1 (centres undefined)
0.98	-0.05	Cc1cc(C)c(C(=O)N2CCCC(C(=O)c3cc(F)ccc3F)C2)o1 (centres undefined)
0.14	0.54	Oc1ccccc1C1=Nc2ncnn2C(c2ccccc2)C1 (centres undefined)
0.78	0.55	O=C(O)c1ccc(-c2nc3ccccc3[nH]2)cc1
0.12	0.65	Cc1ccc(/C=N/NC(=O)C2CC(=O)N(c3ccccc3)C2)s1 (centres undefined)
0.79	0.12	C=CCc1c(OC)ccc2ccc(=O)oc12
0.85	1.66	COc1ccc(NC(=S)NC(=O)Cc2ccccc2)c(OC)c1
0.61	-1.75	Cc1cc(SCC(=O)NCCN2C(=O)CSC2=O)nc2ccccc12
0.34	0.23	O=C(CCC(=O)OCc1ccc(C(=O)Oc2ccccc2)cc1)Nc1cccc2ccccc12
0.7	0.04	Cc1ccccc1CN1C(=O)Nc2ccccc2C(=O)N1C(C)(C)C
0.71	0.75	COCCNC(=S)N1CCN(c2nc3ccccc3s2)CC1
0.25	1.06	CC(C)(C)n1nc2c(c1NC(=O)c1cc(Cl)ccc1[N+](=O)[O-])CS(=O)(=O)C2
0.69	-0.45	O=C(COC(=O)/C=C/c1cccc(C(F)(F)F)c1)NCc1ccc(F)cc1
0.06	0.36	CC(C)CCN(CCC(C)C)C/C(O)=C(\C#N)c1nc(-c2ccccc2)cs1
0.64	0.04	COc1cc(CCC(=O)OCC(=O)Nc2ccc(F)c(F)c2)cc(OC)c1OC
0.34	0.64	O=C(Nc1nccs1)C(c1ccccc1)N1CCCC1 (centres undefined)
0.47	0.63	CC(=O)Nc1ccc(OCC(O)CN2CCN(c3ccc(F)cc3)CC2)cc1 (centres undefined)
0.25	-1.04	Nc1nonc1-n1nnc(C(=O)O)c1-c1cccs1
1.08	-0.03	CN(C(=O)c1ccncc1)c1nnc(-c2cccnc2)s1
1.57	0.83	Cc1ccn2cc(-c3ccc(Br)cc3)nc2c1
0.23	-4.1	CCN(CC)C(=O)COc1ccc(Br)cc1Cl
1.14	1.73	Cc1cc(C)cc(OCC(=O)OCC(=O)c2ccc3c(c2)NC(=O)CO3)c1

# Screens: PubChem BioAssay, Johns Hopkins Ion Channel Center
